Bioassay records (PubChem)
2A StopGo: FMDV 2A StopGo reporter, luciferase signal | 410,000 compounds, 1.2% hits | Potency, µM (top dose mostly 57.9 µM), for the others: top-dose signal change, negative = less light | human cells with a luciferase reporter of 2A StopGo recoding; control for the full effect not named in the record; active = well fitted falling curve with a large enough effect; inconclusive = small, poorly fitted or top-dose-only effect; inactive = no such curve, though single readings can be large or run the other way; tested in HEK293T cells; note: nearly all actives have a fitted effect of over 45% in size; luciferase light after 4 h
RE007 growth inh: less growth of the S. pombe RE007 Vpr strain | S. pombe RE007 Vpr strain, BacTiter-Glo ATP luminescence, 24 h; control for the full effect not named in the record | Potency, µM (doses to about 92.2 µM), for inactives: top-dose activity change, negative = less growth | 360,000 compounds, 0.21% hits | AID 651644; active = well fitted falling curve with a large enough effect; inconclusive = small, poorly fitted or top-dose-only effect; inactive = no such curve, though single readings can be large or run the other way;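 note: nearly all actives have a fitted effect of over 50% in size; the assay follows cell death caused by Vpr and the record does not say whether a fall means rescue or toxicity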
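Fission yeast RE007 carrying one integrated HIV-1 vpr copy, seeded at OD 0.01 in PMG+AL medium with 23 nL pinned compound. Grown 24 h at 30 degrees; viability read by BacTiter-Glo luminescence after 5 min.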
Active calls of the source: *; ? = inconclusive; [ ] = dose if it differs, or a comment. % is set by controls: 0 for no effect and ±100 for the full control effect; potency is the fitted concentration of half-maximal effect. This is a subset, so the mix of outcomes need not match the whole.

Every second line gives: 2A StopGo | RE007 growth inh
C[C@@H]1c2ccccc2N2C[C@H](Cc3ccc(C(=O)c4ccccc4)cc3)C[C@@H]12
  -12% | 0%
CC1(C(=O)NS(=O)(=O)c2ccccc2Cl)CCN1C(=O)c1ccco1 (stereo not given)
  7% | 14%
O=C1CCN(Cc2ccccc2)C=C1C(=O)c1ccccc1
  -6% | -10%
CN(C)CCN1CCN(C2CN(Cc3ccc([N+](=O)[O-])cc3)S(=O)(=O)C2)CC1 (stereo not given)
  -18% | -5%
COc1ccc(NC(=O)c2cc(C3CCCCN3S(=O)(=O)Cc3ccccc3)on2)cn1 (stereo not given)
  47%[activator] | -3%
COc1cccc(C2=Cc3ccc(F)cc3C(CC(C)=O)N2c2ccc(-c3cncnc3)cc2)c1 (stereo not given)
  -4% | -1%
C[C@H]1CN([C@@H](C)CO)C(=O)CCCn2nncc2CO[C@@H]1CN(C)S(=O)(=O)c1cccc(F)c1
  -8% | 13%
Cc1cc(C)cc(Cn2cc(CN3CC(N4CCN(CCO)CC4)CS3(=O)=O)nn2)c1 (stereo not given)
  -21% | -16%
Cc1cccnc1C(NC(=O)C1CCN(Cc2ccc(Oc3ccccc3)cc2)CC1)c1ccc(F)cc1 (stereo not given)
  -25% | 2%[18.4 µM]
Cc1ccnc(NC(=O)CCNC(=O)c2ccc(Br)cc2)c1
  40%[activator] | 20%
COc1ccc(CNC(=O)Nc2ccc([N+](=O)[O-])cc2)cc1
  1% | -12%
O=C(CNC(=O)c1ccccc1F)OCc1nc2ccc(Cl)cc2n1CCO
  -14% | -3%
O=C(N/N=C/c1ccc(Cl)c([N+](=O)[O-])c1)c1ccc2c(c1)OCCO2
  -2% | -7%
Cc1ccc(F)c(CNC(=O)C2(C)CCCN2C(=O)C(C)C)c1F (stereo not given)
  -12% | -3%
CC1(C)CC(Cc2ccc(Cl)nc2)N(C(=O)OC(C)(C)C)C1 (stereo not given)
  0% | -7%

Other compounds.
Every second line gives: 2A StopGo | RE007 growth inh
COc1cc(C(O)c2nc(-c3ccncc3)cs2)ccc1F (stereo not given)
  ? | -7%[18.4 µM]
CC1(C)CC(=O)C=C(c2ccc(-c3ccc(OC(F)(F)F)cc3)cc2)C1=O
  -12% | 10%
CN(C)C(=O)c1ccc(-c2nnc(OCc3nc4ccccc4n3C)c3ccccc23)cc1
  ? | 3%
O=c1ccn([C@@H]2O[C@H](CNCc3ccc(-n4cccn4)cc3)[C@@H](O)[C@H]2O)c(=O)[nH]1
  -22% | -9%
CC(C)CC(N)c1csc(Nc2ccc(C(=O)c3ccccc3)cc2)n1 (stereo not given)
  0% | -6%
CC1(C(=O)NCc2ccco2)Cc2c(-c3ccc4c(c3)OCO4)ccnc2O1 (stereo not given)
  -16% | 5%
CCOC(=O)[C@]12CCCC=C1N(Cc1ccc(Cl)cc1Cl)C(=O)[C@H](CC(=O)NCc1cccc3ccccc13)C2
  -26% | -5%
O=C(NCCN1CCC(n2c(=O)[nH]c3ccccc32)CC1)c1ccccc1
  -19% | -7%
Cc1ccc(CNS(=O)(=O)c2ccc(Cl)s2)cc1
  38%[activator] | -2%
CC1(C(=O)NCCC(F)(F)F)Cc2c(-c3cccc(C(N)=O)c3)ccnc2O1 (stereo not given)
  1% | 14%
CC(=O)N1CCN(S(=O)(=O)c2cccc(C(=O)OCC(=O)Nc3c(Cl)cccc3C(F)(F)F)c2)CC1
  -6% | 1%
COc1ccc(OC)c(CN2CCN(C(=O)c3ccc(C)c(S(=O)(=O)Nc4ccccc4OC)c3)CC2)c1
  -2% | ?
COc1ccc(S(=O)(=O)NC(=O)C2(C)CCN2C(=O)C2CCCCC2)cc1OC (stereo not given)
  0% | 11%
COc1cccc(C(c2nnnn2Cc2ccccc2)N2CCC3(CC2)C(=O)NCN3c2ccccc2)c1OC (stereo not given)
  9% | -9%
COC(=O)C1(C(=O)OC)C/C=C\CN(S(=O)(=O)c2ccccc2[N+](=O)[O-])CC1
  -10% | -7%

Carrying on:
Every second line gives: 2A StopGo | RE007 growth inh
CN1CCN(c2ccc3sc(-n4ccc5ccccc54)nc3c2)CC1
  ? | 5%
CC(NC(=O)c1ccc2nc(Cc3cccc(Cl)c3)oc2c1)c1ccncn1 (stereo not given)
  -27% | 17%
CCOc1ccc(S(=O)(=O)N2CCCC2)c2ccccc12
  ? | -3%
Cn1cc(CN2CCC(C(=O)NC(c3ccc(F)cc3)c3ccc4ccccc4n3)CC2)c2ccccc21 (stereo not given)
  -20% | -22%[18.4 µM]
COc1cc(NC(=O)CSc2nc3[nH]ncc3c(=O)n2-c2ccccc2)cc(OC)c1OC
  -21% | 2%
Cc1ccc(S(=O)(=O)N2CCN(C(=O)c3cc(S(=O)(=O)N4CCOCC4)ccc3Cl)CC2)c(C)c1
  ? | 3%
CC(=O)N1CC2(CC(c3ccccc3F)=NO2)CN1c1ccc(Cl)cc1 (stereo not given)
  53%[activator] | 5%
CC1(C)OC(=O)C2=C(C[C@@H](C3CCCCC3)O[C@H]2c2ccc(Cl)cc2)O1
  -24% | 7%
Cc1cccc(C)c1NC(=O)CN(C)CCc1ccccc1
  -19% | -5%
COc1cccc(C(Nc2ccccc2)c2ccc3ccc(C)nc3c2O)c1 (stereo not given)
  -8% | -8%
CSc1ccc(CN2CCC(C)(Oc3cnc(Cl)c4ccccc34)C2)cc1 (stereo not given)
  -20% | -27%
COCCNC(=O)C1(C)CCCN(Cc2noc(-c3ccccc3OC)n2)C1 (stereo not given)
  -15% | 11%
O=C(c1cccs1)N1C[C@H](O)[C@@H](n2cc(-c3ccc(F)cc3)nn2)C[C@@H]1c1ccccc1
  -18% | 4%
CC(=O)NCCNc1nc2cc(-c3ccccc3CO)sc2c(=O)n1C
  4% | 28µM*
COCCNC(=O)C1CCCN(C(=O)c2cc(-c3cccs3)oc2C)CC1 (stereo not given)
  -21% | 5%

5 structures from above, ordered by count of non-hydrogen atoms, highest first:
Every second line gives: 2A StopGo | RE007 growth inh
COc1cc(NC(=O)CSc2nc3[nH]ncc3c(=O)n2-c2ccccc2)cc(OC)c1OC
  -21% | 2%
COc1cccc(C(Nc2ccccc2)c2ccc3ccc(C)nc3c2O)c1 (stereo not given)
  -8% | -8%
CSc1ccc(CN2CCC(C)(Oc3cnc(Cl)c4ccccc34)C2)cc1 (stereo not given)
  -20% | -27%
CC1(C)OC(=O)C2=C(C[C@@H](C3CCCCC3)O[C@H]2c2ccc(Cl)cc2)O1
  -24% | 7%
CN1CCN(c2ccc3sc(-n4ccc5ccccc54)nc3c2)CC1
  ? | 5%

Following part.
| Structure | 2A StopGo | RE007 growth inh |
| --- | --- | --- |
| Cc1ccc(NC(=O)COC(=O)Cc2c[nH]c3ccccc23)cc1 | -10% | -8% |
| C[C@H]1CN([C@@H](C)CO)C(=O)CCCn2cc(nn2)CO[C@@H]1CN(C)C(=O)Nc1ccccc1F | -13% | 31% |
| CC(C)NC(=O)C1(C)CCCCN1Cc1cccc(C(F)(F)F)c1 (stereo not given) | -24% | -4%[18.4 µM] |
| O=C1c2ccccc2C(c2nnnn2Cc2ccccc2)N1CCc1ccccc1F (stereo not given) | 28% | 4% |
| CCCCC(=O)N(C)c1c(CC)nc2c(OCCC)cccn12 | -11% | -3% |
| CNC(=O)C[C@H]1C(=O)N(c2ccc(OC)cc2)C[C@@H]1Cc1ccccc1 | -4% | -10% |
| COc1ccc(Cl)c(-c2cc(C(=O)Nc3ccccc3)[nH]n2)c1 | 27% | -25% |
| COCCNC(=O)C1CCCN(C(=O)COc2ccc(C(C)(C)C)cc2)CC1 (stereo not given) | 13% | 2% |
| COC1=CC(=O)OC(c2ccccc2)C1 (stereo not given) | -10% | 11% |
| COc1ccccc1N(CC(=O)N1CCN(Cc2ccccc2)CC1)S(=O)(=O)c1ccccc1 | -10% | 6% |
| Cn1c(=O)c2cc(NC(=O)CCc3ccc(O)cc3)ccc2n1Cc1cccc(C(F)(F)F)c1 | -12% | -9% |
| CC(=O)c1cccc(-c2ccnc3c2CC(C(=O)NCc2ccc(N4CCN(C)CC4)cc2)O3)c1 (stereo not given) | 0% | -3% |

An excerpt of the results above:
| Structure | 2A StopGo | RE007 growth inh |
| --- | --- | --- |
| Cc1ccc(NC(=O)COC(=O)Cc2c[nH]c3ccccc23)cc1 | -10% | -8% |
| C[C@H]1CN([C@@H](C)CO)C(=O)CCCn2cc(nn2)CO[C@@H]1CN(C)C(=O)Nc1ccccc1F | -13% | 31% |
| CC(C)NC(=O)C1(C)CCCCN1Cc1cccc(C(F)(F)F)c1 (stereo not given) | -24% | -4%[18.4 µM] |

Other compounds
| Structure | 2A StopGo | RE007 growth inh |
| --- | --- | --- |
| c1ccc(-c2cnc(-c3ccccn3)nn2)cc1 | 27% | ? |
| O=C(Nc1ccc(C(O)c2ccccc2)cc1)[C@@H]1O[C@H](CO)[C@@H](O)[C@H]1O (stereo not given in full) | -17% | 14% |
| O=C1Nc2cc(C(=O)N3CCOCC3)ccc2S/C1=C/c1ccccc1F | -6% | 8% |
| CC1(C(=O)Nc2ccc3c(c2)OCCO3)CN(S(C)(=O)=O)CC(=O)N1CCc1c[nH]c2ccccc12 (stereo not given) | 0% | -8% |
| COCC1CCN(Cc2c(C(=O)N3CCOCC3)nc3c(C)cccn23)C1 (stereo not given) | -5% | -4% |
| COc1ccc(NC(=O)[C@@H]2CC=C[C@@H]3CCN(Cc4ccccc4)C(=O)[C@@H]32)cc1 | -2% | 0% |
| CCC(=O)Nc1ccc(S(=O)(=O)NC[C@H]2O[C@@H](n3cnc4c(=O)[nH]c(N)nc43)[C@H](O)[C@@H]2O)cc1 | -1% | 1% |
| CCOC1=C2CN(S(=O)(=O)c3ccc(C)cc3)C(c3ccc(CC)cc3)CC2N(S(=O)(=O)c2ccc(C)cc2)C(c2ccc(CC)cc2)C1 (stereo not given) | ? | 6% |
| O=C(c1cccc(Cl)c1)N1CCC2CC1c1cc(N3CCOCC3)ccc12 (stereo not given) | -13% | -3% |
| CC(C)NC(=O)C1C(c2ccccc2)=Nc2ccccc2N1C(=O)c1cc(Cl)cc(Cl)c1 (stereo not given) | -26% | -4% |
| O=C(CSc1ccccn1)NC1CCCc2c1cnn2-c1ccccc1F (stereo not given) | -12% | 4% |
| COc1ccc(CN(C(C)=O)c2cc(C)c([N+](=O)[O-])cc2OC)cc1OC | -20% | 1% |

Additional entries
| Structure | 2A StopGo | RE007 growth inh |
| --- | --- | --- |
| O=C(NCc1cc(Cl)cc(Cl)c1)c1ccc2sc([C@@H]3O[C@H](CO)[C@H](O)[C@H](O)[C@H]3O)nc2c1 | -9% | 2% |
| CCCC(C)(C)C(=O)N1CCC1(C)C(=O)NS(=O)(=O)c1ccc(Br)cc1 (stereo not given) | 26% | 7% |
| CN(C(=O)c1cccc(NC(=O)Cc2cccc(NC(=O)C3CCN(S(=O)(=O)c4cccc([N+](=O)[O-])c4)CC3)c2)c1)C1CC1 | -22% | 2% |
| CC(=O)N1c2ccccc2N=C(c2ccc3c(c2)OCO3)C1C(=O)NCc1ccccc1 (stereo not given) | 26% | -7% |
| CC(C)(C)NC(=O)C(c1ccc(-c2ccccc2)cc1)n1c(=O)c(-c2ccccc2)nc2ccccc21 (stereo not given) | -2% | -13% |
| CC(C)(C)n1nnnc1C(c1cccc2ccccc12)N1CCC2(CC1)C(=O)NCN2c1ccccc1 (stereo not given) | -19% | 7% |
| COC(=O)C1=C/C=C\CN(C(c2ccccc2)c2ccccc2)/C=C\1C(=O)OC | ? | 1% |
| CCOC(=O)C1(C)CCN1C(=O)c1ccc(C)cc1 (stereo not given) | -6% | 11% |
| CCC(C)c1ccc(O)c(NC(=S)NC(=O)c2cccs2)c1 (stereo not given) | 0% | ? |
| Cc1nn(-c2ccc(Cl)cn2)c2c1C(=O)CC(C)(C)C2Br (stereo not given) | 32%[activator] | -7% |
| O=C(CN(c1ccccc1Cl)S(=O)(=O)c1ccccc1)NC1CC2CCC1C2 (stereo not given) | 2% | 8% |
| O=C(COC(=O)Cc1ccc(Br)cc1)NCc1ccccc1 | -12% | 7% |

Going on with the list:
| Structure | 2A StopGo | RE007 growth inh |
| --- | --- | --- |
| COC(=O)c1cccc(-n2c(C)cc(/C=C3\SC(=O)NC3=O)c2C)c1 | 35%[activator] | 15% |
| CCOC(=O)[C@]12CCCC=C1N(Cc1ccc(Cl)cc1Cl)C(=O)[C@H](CC(=O)N1CCOCC1)C2 | 0% | -11% |
| CC(C)(C)c1ccc(C(=O)N2CCOC23CCCCC3)cc1 | 12% | -5% |
| CCOc1ccccc1C(=O)NC(C(=O)OCn1nnc2ccccc2c1=O)C(C)C (stereo not given) | -13% | 8% |
| CON(C)C(=O)/C=C/c1ccc([B-](F)(F)F)cc1 | 69%[activator] | -10% |
| COc1ccc(CN2C(=O)C(CC(=O)NC(c3ccccc3)c3ccccc3)CC(C(=O)N(C(C)C)C(C)C)=C2C)cc1 (stereo not given) | ? | 2% |
| Cc1ccccc1-c1cnc2c(c1)C(=O)N([C@@H](C)CO)C[C@@H](C)[C@H](CN(C)Cc1ccccc1F)O2 | ? | -3% |
| CCN(CC)C(=O)C1=C(C)N(CCC2=CCCCC2)C(=O)C(CC(=O)NCc2ccco2)C1 (stereo not given) | -3% | 2% |
| COc1cccc(S(=O)(=O)N(C)C[C@@H]2Oc3cc(Br)ccc3S(=O)(=O)N([C@@H](C)CO)C[C@@H]2C)c1 | -15% | -15% |
| COC(=O)C[C@@H]1CC[C@@H](NC(C)=O)[C@@H](CO)O1 | -8% | 11% |
| CCN1C(=O)[C@H]2[C@@H](c3ccc(C)cc3)N[C@]3(CCCN(Cc4ccc(C)cc4)C3=O)[C@H]2C1=O | ? | 4% |
| Oc1cc(O)cc(-c2cc3ccc(O)cc3o2)c1 | -21% | 5% |
